miR-21 FLuc: raises the signal of a miR-21 reporter | HeLa miR-21 FLuc reporter, luciferase, 48 h | Potency, µM (top dose mostly 38.3 µM), for inactives: at the top dose reporter change, positive = more light | 340,000 tested, under 10 active | AID 2288; active = well fitted rising curve with a large enough effect; inconclusive = small, poorly fitted or top-dose-only effect; inactive = no such curve, though single readings can be large or run the other way;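 further: % of control where 0% means no effect; miR-21 action dims this reporter so a rising signal means less miR-21 action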
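HeLa cells stably expressing CMV-driven firefly luciferase with a downstream miR-21 binding sequence, endogenously expressing miR-21, were treated with titrations (up to about 40uM final) for 48 hours at 37 degree Celsius. Luciferase luminescence was read after lysis.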
Rango-impB inh: Rango-importin beta binding inhibition. Q14974. Rango CFP/YFP FRET sensor + importin beta, 45 min. Potency, µM (highest dose often 92.2 µM), inactives show top-dose inhibition of complex formation. 340,000 tested, 0.031% active; active = rising FRET ratio curve, often small or poorly fitted; inconclusive = mostly compound fluorescence or quenching in the first reads; inactive = flat curves in all reads;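 further: potency means the concentration at half of the fitted maximal effect; 0% = DMSO wells and 100% = buffer wells lacking importin beta; nearly all actives have a fitted effect of over 15% in size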
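Inhibition scored from the CFP 486 nm/YFP 530 nm FRET ratio 45 min after adding 0.125 microM importin beta to 50 nM Rango biosensor preincubated 5 min with compound (room temperature, PBS with DTT, Tween-20, BSA). No-importin wells as positive control.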
GLA inh pH 4.5: inhibitors of human alpha-galactosidase A at pH 4.5; AID 1467; activity change, negative = inhibition, % at 105 µM; 230,000 tested, under 10 active; purified enzyme, 4-MU-alpha-Gal fluorescence, pH 4.5; inconclusive = small, poorly fitted or top-dose-only inhibition, or a rising curve; inactive = flat fitted curve, though single readings scatter; no compound was filed as active;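 further: 0% = full activity with enzyme and -100% = basal without enzyme; dose as in the result columns while the protocol names 77 µM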
Target sequence (P06280 whole entry, looked up): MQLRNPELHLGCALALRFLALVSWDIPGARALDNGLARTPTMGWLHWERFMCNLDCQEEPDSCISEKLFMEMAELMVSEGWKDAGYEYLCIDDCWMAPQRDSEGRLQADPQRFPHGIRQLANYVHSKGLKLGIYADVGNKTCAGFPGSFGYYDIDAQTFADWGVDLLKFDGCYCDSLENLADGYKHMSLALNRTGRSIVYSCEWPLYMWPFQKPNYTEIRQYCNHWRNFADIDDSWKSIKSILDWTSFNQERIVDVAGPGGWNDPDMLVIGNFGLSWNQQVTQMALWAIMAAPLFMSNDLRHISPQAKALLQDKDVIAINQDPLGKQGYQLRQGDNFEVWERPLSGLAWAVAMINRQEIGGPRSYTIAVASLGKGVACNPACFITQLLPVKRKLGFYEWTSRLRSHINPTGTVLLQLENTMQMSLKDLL
Rango release inh: prevents RanGTP from dissociating the Rango-importin beta complex; 340,000 tested, 0.071% active; O95149+P62826; Potency, µM (titrated, usually from 46.1 µM), for the others: at the highest dose activity change, negative = inhibition; Biochemical FRET Rango-importin beta, RanGTP-induced dissociation; active means falling FRET ratio curve, often poorly fitted, with flat reads before Ran was added; inconclusive means other falling curves, or compound fluorescence or quenching; inactive means flat or rising ratio curve;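 further: potency means the concentration at half of the fitted maximal effect; % of control where 0% means no effect; nearly all actives have a fitted effect of over 45% in size; -100% = wells without RanGTP and RCC1; the record marks most hits as doubtful in a second field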
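Rango FRET biosensor (snurportin-1 IBB flanked by N-terminal EYFP and C-terminal CFP10) at 0.1 uM, with 0.25 uM importin beta in PBS, 1mM DTT, 0.02% Tween-20, 0.1% BSA. 0.6 uM Ran, 2mM GTP and 0.2 uM RCC1 were then added for 45 min at room temperature. Inhibition read as loss of FRET rise.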
Active calls of the source: *; ? = inconclusive; · = no result given; & = joins results of further samples. Not all compounds are listed; rates above refer to the full screens.

A first look:
SMILES	miR-21 FLuc	Rango-impB inh	GLA inh pH 4.5	Rango release inh
O=C(Nc1ccccc1C(=O)N1CCN(Cc2ccccc2)CC1)c1ccccn1	-17%	-1.7%	-28	7%
CC(C)[C@@H]1NC(=O)N(c2ccc(Oc3ccccc3)cc2)C1=O	-17%	-1.1%	-4	0%
Cc1cc(=O)oc2cc(OCC(=O)N3CC(=O)Nc4ccccc43)c(Cl)cc12	·	-0.3%	·	-11%
Cc1cc(C)c2nc(/N=C(\N)NC(=O)c3ccccc3)nc(C)c2c1	1%	-0.7%	-10	-5%
CN(CC(=O)Nc1ccc(F)cc1)CC(=O)Nc1ccc(F)c(F)c1F	-1%	-0.5%	0	11%

All compounds of this part, previewed entries included:
SMILES	miR-21 FLuc	Rango-impB inh	GLA inh pH 4.5	Rango release inh
O=C(Nc1ccccc1C(=O)N1CCN(Cc2ccccc2)CC1)c1ccccn1	-17%	-1.7%	-28	7%
CC(C)[C@@H]1NC(=O)N(c2ccc(Oc3ccccc3)cc2)C1=O	-17%	-1.1%	-4	0%
Cc1cc(=O)oc2cc(OCC(=O)N3CC(=O)Nc4ccccc43)c(Cl)cc12	·	-0.3%	·	-11%
Cc1cc(C)c2nc(/N=C(\N)NC(=O)c3ccccc3)nc(C)c2c1	1%	-0.7%	-10	-5%
CN(CC(=O)Nc1ccc(F)cc1)CC(=O)Nc1ccc(F)c(F)c1F	-1%	-0.5%	0	11%
CCOC(=O)N1CCN(C(=O)c2ccc(S(=O)(=O)Nc3ccc(C)cc3)cc2)CC1	·	-4.0%	·	0%
Cc1cccc(NC(=S)N=Nc2c(O)n(C)c3ccc(S(=O)(=O)N4CCOCC4)cc23)c1	-12%	-0.1%	4	1%
CCc1ccc(/C=N/n2c(COc3ccccc3)n[nH]c2=S)cc1	-2%	-0.4%	·	12%
CS(=O)(=O)NCc1ccc(C(=O)O)cc1	2%	2.0%	1	33%
O=C(Nc1ccncc1)c1ccc(F)cc1	-4%	0.1%	-1	17%
CCCCS(=O)(=O)NC1=NCN(CCO)CN1	0%	1.4%	-4	1%
CN(C(=O)c1ccccc1OCc1ccc(F)cc1)c1c(N)n(Cc2ccccc2)c(=O)[nH]c1=O	·	1.0%	·	-16%
O=C(CSc1nnc(Cc2cc(=O)[nH]c(=O)[nH]2)n1-c1ccccc1)N1CCCc2ccccc21	-1%	4.3%	8	6%
CC(C)OCCCn1c(=O)c2ccccc2n2c(CCC(=O)N3CCN(c4ccccn4)CC3)nnc12	0%	2.3%	·	4%
CCOC(=O)NC(=O)C(=CNc1cccc(OC)c1)C(=O)NC(=O)OCC	-3%	-0.7%	-4	11%
CCOC(=O)CNC(=O)c1cccs1	-7%	-0.9%	2	4%
O=C(Nc1c(Cl)cccc1Cl)c1ccc(-c2ccccc2)cc1	-30%	-0.2%	-11	-9%
COc1cc2c(C(F)(F)F)c(-c3ccsc3)oc(=O)c2cc1OC	·	4.7%	·	-20%
Cc1sc(NC(=O)CN(Cc2ccc(F)cc2)C(=O)C(C)C)c(C(N)=O)c1C	1%	-0.1%	-1	-11%
COc1cc(NS(=O)(=O)c2ccc(NS(=O)(=O)c3ccc(C)cc3)cc2)nc(OC)n1	5%	2.3%	·	?
CCC(NC(=O)c1cc(COc2ccc(F)c(F)c2)on1)c1ccncc1 (centres undefined)	-8%	2.5%	·	-14%
COc1nc(N/N=C/c2ccccc2F)nc(N2CCCCC2)n1	-6%	1.3%	1	-6%
CC(C)(C)n1nnnc1C(c1cccs1)N1CCN(C(=O)c2ccco2)CC1 (centres undefined)	-9%	2.3%	2	1%
COc1cc(-c2nnc(NC(=O)CCS(=O)(=O)c3ccccc3)o2)cc(OC)c1OC	·	-0.4%	·	22%
Cn1c(=O)[nH]c(=O)c2c1nc(N1CCCC1)n2CCO	-2%	-0.8%	·	5%
SMILES	miR-21 FLuc	Rango-impB inh	GLA inh pH 4.5	Rango release inh
CN(CCc1ccccn1)C1CC(=O)N(c2ccc(Cl)cc2)C1=O (centres undefined)	-1%	-2.3%	-6	-7%
CCOC(=O)C(C)Oc1cccc2c(=O)n(CC(=O)N3CCCc4ccccc43)ccc12 (centres undefined)	0%	-0.3%	-4	-7%
COc1ccccc1C(=O)NC(C)c1nc2ccccc2[nH]1 (centres undefined)	-10%	2.9%	3	-9%
COC(=O)c1ccc(CSc2nnc3c(n2)[nH]c2ccccc23)cc1	-2%	-1.2%	-14	0%
CCC/C(=N\NC(=O)c1ccc(CSc2nncn2C)cc1)c1ccccc1	-9%	3.8%	5	-1%
CC(=O)OCC1O[C@@H](O[C@@H]2C[C@H]3C(C)(C)[C@H](OC(C)=O)CC[C@]3(C)[C@H]3CC[C@]45C[C@]4(CC[C@H]5[C@@H](C)C[C@@H](O)[C@H](O)C(C)(C)O)[C@@]32C)[C@H](O)[C@@H](O)[C@@H]1O (some centres undefined)	28%	·	5	·
Cn1cnnc1SCC(=O)Nc1ccc2c(c1)CCC2	-23%	0.3%	2	-14%
C=CCN(CC=C)S(=O)(=O)c1ccc2nsnc2c1	-2%	1.7%	-9	20%
COc1ccccc1NC(=O)CCS(=O)(=O)c1ccc2c(c1)NC(=O)C(C)S2 (centres undefined)	8%	0.4%	·	7%
CCC(=O)N1CCN=C1SCc1cccc(F)c1	-5%	1.3%	·	19%
C=CCSc1nnc(-c2ccncc2)n1-c1ccc(OCC)cc1	-1%	-4.9%	-5	1%
N=c1sccn1CC(=O)Nc1ccccc1Sc1ccccc1	-1%	2.5%	-4	35%
Cc1ccc(NC(=O)/C(C#N)=C/c2ccc(Sc3nc(C)cc(C)n3)o2)cc1	-7%	-2.6%	-9	?
O=C(C1CCC(CNc2nc(=S)[nH]c3ccccc23)CC1)N1CCN(c2ccccn2)CC1 (centres undefined)	-3%	-0.3%	-5	-7%
OC(C#CCN1CCCCCC1)(c1ccccc1)c1cccnc1 (centres undefined)	4%	2.6%	-6	-4%
[O-]c1n[n+](-c2ccc(Cl)cc2Cl)cc2ccccc12	1%	1.4%	-5	1%
COC(=O)c1ccc(NC(=O)COC(=O)c2cccc3c(=O)c(C)c(-c4ccccc4)oc23)cc1	2%	-2.0%	-1	-3%
CCOc1cc(Br)cc(C(c2c(C(=O)O)[nH]c3ccccc23)c2c(C(=O)O)[nH]c3ccccc23)c1O	4%	-2.1%	·	18%
O=C1OCc2cc(NC(=O)C3CCCCC3)ccc21	-12%	5.3%	-1	9%
COc1ccc(C(C(=O)NC2CCCC2)N(CCN(C)C)C(=O)c2snc(C(N)=O)c2N)cc1 (centres undefined)	-14%	-4.8%	0	-6%
CCOC(=O)N1C(=O)[C@@](c2ccc(Cl)cc2)(C(C)C)N1C(=O)OCC	?	0.3%	·	-8%
O=C(Oc1ccc2ccccc2c1Cl)N1CCCCCC1	-15%	0.5%	0	1%
Cc1coc2c1c(C)cc1oc(=O)c(CC(=O)N[C@@H](CC(C)C)C(=O)O)c(C)c12	-18%	-6.9%	·	22%
CCOC(=O)c1nc2nc(-c3cccs3)cc(C(F)(F)F)n2n1	-6%	2.6%	?	-2%
O=C(CSC1=NNC(c2ccccn2)S1)Nc1ccccc1 (centres undefined)	14%	-0.2%	-5	1%
SMILES	miR-21 FLuc	Rango-impB inh	GLA inh pH 4.5	Rango release inh
Cc1ccc(CCC(=O)Nc2ncc(Cc3cc(Cl)ccc3Cl)s2)o1	26%	?	2	-4%
COc1cc(CN2CCC(C(=O)NC3CCCC3)CC2)cc(Br)c1O	-4%	-0.7%	0	37%
CN(CCOc1ccc(Br)cc1)CC(O)COc1ccc(C#N)cc1 (centres undefined)	17%	-0.5%	·	13%
O=C(CN1C(=O)c2cccc3cccc1c23)N1CCN(c2ccccc2)CC1	-5%	?	-1	?
Cc1cccc(Cn2c(SCCN3CCOCC3)nc3c2c(=O)n(C)c(=O)n3C)c1	-13%	-3.3%	-1	0%
CN(C(=O)CCS(=O)(=O)c1cc2c(cc1Cl)NC(=O)CO2)C1CCCCC1	-5%&-6%	-0.6%	·	17%
CC(C)(C)c1ccc(-n2ncc3c2CCCC3NC(=O)CN2CCCCC2=O)cc1 (centres undefined)	10%	-1.2%	·	-2%
CCn1c(SCC(=O)N/N=C/c2c[nH]c3ccccc23)nnc1-c1ccc(C)cc1	6%	-0.1%	-1	3%
CN(C)c1ccc(C=C2C(=O)OC3(CCCC3)OC2=O)cc1	1%	-2.1%	6	-2%
CC(=O)N1CCN(C(=O)c2ccc(C)c(S(=O)(=O)N3CCCCC3)c2)CC1	·	0.8%	·	9%
CCc1nc(NCC(C)C)c(C#N)c2c1COC(C)(C)C2	0%	-1.0%	3	1%
N#CCCn1cnc2ccccc21	-3%	0.6%	4	-14%
Cc1ccnc(NS(=O)(=O)c2ccc(NC(=O)CCS(=O)(=O)c3ccccc3)cc2)n1	-30%	?	10	-15%
Nc1ncnc(Nc2ccc(F)cc2)n1	-22%	7.3%	4	-10%
CC(C)(C)NC(=O)C(c1cccs1)N(C(=O)c1csnn1)c1ccccc1F (centres undefined)	-1%	-4.6%	8	1%
COCCN1CCN(Cc2cn[nH]c2-c2cc3ccccc3o2)CC1	3%	-0.3%	4	3%
O=C(CCC(=O)c1cccs1)OCC(=O)N1CCN(S(=O)(=O)c2ccccc2)CC1	-5%	3.0%	-18	-7%
O=C(COc1ccccc1Cl)NCCCNC(=O)c1ccccn1	-1%	-3.5%	·	15%
CCc1ccc2[nH]c(=O)c(CN(Cc3ccccc3)C(=O)Nc3ccccc3OC)cc2c1	11%	2.4%	-22	-1%
CCCn1c(NC(=O)CCNC(=O)c2ccccc2Cl)nc2ccccc21	·	-1.3%	·	8%
COc1ccc(N2CCN(S(=O)(=O)c3cn(C)c(=O)n(C)c3=O)CC2)cc1	5%	0.1%	-4	-6%
Cc1ccccc1C(=O)OCc1cnc(Cl)s1	-9%	-3.5%	2	3%
CCOC(=O)C1C(=O)C(=O)N(Cc2ccccc2)C1C(=O)OCC (centres undefined)	·	3.7%	·	7%
Cc1nnc2ccc(-c3ccc(NS(=O)(=O)c4ccccc4)cc3)nn12	·	-1.5%	·	10%
COCCNc1nnc(SCC(=O)Nc2cc(-c3ccccc3)nn2-c2ccccc2)s1	-7%	-3.2%	4	-8%
SMILES	miR-21 FLuc	Rango-impB inh	GLA inh pH 4.5	Rango release inh
CN(CC(=O)Nc1ccc(F)cc1)CC(=O)NC1CCCCC1	·	-2.2%	·	-15%
Cc1ccc(-n2ncc3ccccc3c2=O)cc1Cl	-53%	-0.6%	-2	-15%
CC1CCCCN1S(=O)(=O)c1ccc(C(=O)Nc2ccccc2-c2nc3ccccc3[nH]2)cc1 (centres undefined)	0%	?	2	?
O=C(NCCS(=O)(=O)N1CCN(c2ccc(F)cc2)CC1)c1ccc(Br)o1	6%	1.2%	·	6%
CSc1nc(O)c(C(c2ccccc2Cl)c2c(O)nc(SC)[nH]c2=O)c(=O)[nH]1	·	-0.9%	·	2%
CN(C(=O)c1cccc(NC(=O)Cc2ccc(NC(=O)C3CCCN(S(=O)(=O)c4cccc([N+](=O)[O-])c4)C3)cc2)c1)C1CCCCC1 (centres undefined)	·	2.6%	·	-22%
O=C1OCCN/C1=C\C(=O)c1ccccc1	2%	-0.4%	-3	-5%
CN(C)N=Nc1nc2c([nH]1)c(=O)n(C)c(=O)n2C	9%	-1.7%	-7	0%
O=C(CCS(=O)(=O)c1ccc(Br)cc1)NC1CCCCCC1	1%	-0.7%	·	31%
Oc1ccc(C2Nc3cccc4cccc(c34)N2)c(O)c1	-10%	1.8%	-25	0%
O=C(NC1CCCC1)C1CC(=O)N(C2CCCCCCC2)C1 (centres undefined)	-3%	-0.4%	-9	6%
CC(C)Oc1ccc(S(=O)(=O)N2CCOCC2)cc1NC(=O)c1cccc(S(=O)(=O)N2CCCC2)c1	·	?	·	-3%
OC1CCN(Cc2ccc3ccccc3c2)CC1	-11%	0.3%	·	16%
CC(=O)NCCNc1ccc([N+](=O)[O-])cc1C#N	0%	-2.6%	-4	0%
CCCCC(=O)N/N=C/c1ccc(N2CCOCC2)c([N+](=O)[O-])c1	-20%	-3.0%	4	3%
Cn1c(CC(=O)Nc2ccccc2F)nnc1SCC(=O)N1CCOCC1	-19%	-0.7%	·	-1%

High-throughput results from PubChem.
